KCNQ2 enhance = potentiators of rat KCNQ2 potassium channel. Potassium voltage-gated channel subfamily KQT member 2 (Rattus norvegicus), O88943. CHO-K1 KCNQ2, FluxOR thallium flux fluorescence; hits give high values. B-score at 10 µM. 0.54% of 310,000 active;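 active = fluorescence ratio B-score at least 3 SD of library B-scores, with initial fluorescence B-score within 3 SD, cut at about 5.3 in these data; same plate scores as AID 2156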;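 also: B-score of peak minus minimum over baseline fluorescence ratio after K+ and Tl+ stimulus; positive B-score means potentiation of KCNQ2 with more thallium influx and brighter signal; only the inactives scoring about 0 or higher are listed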
Target sequence (O88943 whole entry, looked up): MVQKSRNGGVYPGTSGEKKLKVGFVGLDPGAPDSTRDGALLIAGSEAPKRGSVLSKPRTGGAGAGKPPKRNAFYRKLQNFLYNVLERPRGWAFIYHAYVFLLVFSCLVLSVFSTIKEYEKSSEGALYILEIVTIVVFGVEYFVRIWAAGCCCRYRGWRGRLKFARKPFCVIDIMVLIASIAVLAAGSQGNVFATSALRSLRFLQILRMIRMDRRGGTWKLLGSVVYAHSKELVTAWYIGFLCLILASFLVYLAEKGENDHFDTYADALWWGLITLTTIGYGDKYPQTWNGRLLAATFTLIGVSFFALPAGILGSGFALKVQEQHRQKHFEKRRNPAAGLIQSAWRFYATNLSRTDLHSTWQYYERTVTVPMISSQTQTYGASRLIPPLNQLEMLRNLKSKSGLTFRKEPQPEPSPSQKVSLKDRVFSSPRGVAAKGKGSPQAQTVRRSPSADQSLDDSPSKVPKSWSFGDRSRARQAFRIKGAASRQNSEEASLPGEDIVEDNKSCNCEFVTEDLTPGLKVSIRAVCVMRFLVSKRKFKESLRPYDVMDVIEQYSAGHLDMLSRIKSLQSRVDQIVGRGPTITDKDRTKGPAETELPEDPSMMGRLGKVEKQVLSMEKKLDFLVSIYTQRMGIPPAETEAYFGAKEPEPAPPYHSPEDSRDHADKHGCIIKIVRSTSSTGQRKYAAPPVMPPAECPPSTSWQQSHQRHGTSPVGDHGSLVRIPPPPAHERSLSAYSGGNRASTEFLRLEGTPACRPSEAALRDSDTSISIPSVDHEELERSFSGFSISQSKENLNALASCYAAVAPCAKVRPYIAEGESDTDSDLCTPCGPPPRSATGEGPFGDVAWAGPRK
KCNQ2 enhance baseline = also measured in KCNQ2 enhance; calls as there; B-score; compound at 10 µM; measured here: initial fluorescence intensity artifact check;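 brightness before thallium and not channel activity; 0 = typical well and far values either way flag optical interference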
Numbers without * were called inactive. Only part of the results is shown, so the mix of outcomes need not match the whole.

SMILES	KCNQ2 enhance	KCNQ2 enhance baseline
COc1cccc(C2NC(=O)NC(C)=C2C(=O)Nc2ccc(C)cc2)c1OC (stereo not given)	0.37	0.75
CCCNS(=O)(=O)c1ccc(C(=O)NCC2CCCO2)cc1 (stereo not given)	0.63	-1.1
COc1ccc(-n2ncc3c(=O)n(CC(=O)Nc4ccc5c(c4)OCCO5)cnc32)cc1	0.04	-0.64
CC1CN(C(=O)C2(C)CC2(Br)Br)CC(C)O1 (stereo not given)	0.79	0.51
O=C(COc1nncc2ccccc12)Nc1ccc(F)c(F)c1	1.1	-0.71
C=CCc1cccc(/C=N/NC(=O)c2ccc3nc[nH]c3c2)c1O	0.31	-0.19
Cc1c(C(C)(C)C)sc(=NC(=O)c2ccccc2O)n1C	0.16	-0.23
CCCN(CCC)CCCOC(=O)c1ccc(Cl)cc1Cl	1.9	-0.01
CC(=O)N1CCc2cc(S(=O)(=O)NC(Cc3ccccc3)C(=O)NC3CCCCCC3)ccc21 (stereo not given)	0.02	-1.9
O=C(NCc1ccccn1)Nc1ccc(F)c(Cl)c1	0.68	0.99
COc1ccc(NC(=O)CSc2n[nH]c(N)n2)c([N+](=O)[O-])c1	0.29	1.4
COc1cccc(Cn2cccc(NC(=O)NC3CCCCC3)c2=O)c1	0.11	0.05
CCOc1ccccc1NC(=O)NCCN1CCCCC1	0.35	1.3
CCCCNCc1cccn1-c1ccccc1	1.2	-0.49
CCCCc1nnc(NC(=O)CN(C)S(=O)(=O)c2ccc(C)cc2)s1	0.99	1
CC(=O)NC(=S)Nc1cccc2c(C)cc(C)nc12	0.05	1.8
CCCCONc1ncnc2nonc12	0.49	-0.16
COc1ccc(NC(=O)c2ccc(C(=O)Nc3ccc(OC)cc3OC)cc2)c(OC)c1	1.6	-0.85
Cc1cc(O)c(C2(C(F)(F)F)NCCNC2=O)cc1C (stereo not given)	0.8	1.4
CN(C(=O)C(C)(C)C)c1ccc(OCC(=O)N2CCc3ccccc3C2)cc1	0.39	0.5
CC(=O)Oc1ccc(C23CC4CC(CC(C4)C2)C3)cc1C(=O)O	0.22	-0.32
CCn1c(=O)[nH]c(=O)c2c(N)c(C(=O)c3ccccc3OC)sc21	2.2	0.84
CCOC(=O)C1(CC/C(C)=N\NC(N)=O)CC(C)(C)OC1=O (stereo not given)	0.01	1
Cc1c2c(n3c(nc4ccccc43)c1C#N)N(CCCN(C)C)CC2	1.2	0.07
Cc1cccc(NC(=S)NNC(=O)c2csc3c2CCC(C)C3)c1 (stereo not given)	4	-0.25
CCC1Oc2ccc(C)cc2N(CC(=O)NCCCN2CCCCC2C)C1=O (stereo not given)	0.89	0
O=C1Nc2ccc([N+](=O)[O-])cc2OC1CCN1CCOCC1 (stereo not given)	0.02	-0.6
O=C(CNc1cccc(S(=O)(=O)N2CCOCC2)c1)Nc1ccc(C(F)(F)F)cc1	4.7	-0.11
CCOc1ccc(CN(C)CC(=O)c2c(N)n(Cc3ccccc3)c(=O)n(CC)c2=O)cc1OC	0.06	1.1
Cc1[nH][nH]c(=O)c1N=Nc1ccc(F)cc1	0.16	0.03
CCCCN(C(=O)C1=COCCO1)c1c(N)n(CCCC)c(=O)[nH]c1=O	0.02	-2.5
CC(C)(NC(=O)c1ccccc1)c1nc2ccccc2s1	0.72	0.16
O=C(O)CC(CC(=O)Nc1ccc(Oc2ccccc2)cc1)c1ccccc1 (stereo not given)	0.02	0.26
O=C(COc1ccc([N+](=O)[O-])cc1)Nc1ccc(N2CCCC2)cc1	0.55	-0.49
Cc1ccc(-c2nc3cccnc3s2)cc1NC(=O)c1ccco1	0.23	0.74
CN(Cc1ccccc1)S(=O)(=O)c1ccc(C(=O)Nc2nnc(C3CC3)o2)cc1	0.34	-0.59
O/N=C1\CC(O)Cc2nonc21 (stereo not given)	0.03	0.06
COc1cc(OC)cc(C(=O)Nc2ccc(S(=O)(=O)Nc3cc(C)on3)cc2)c1	1.7	-0.52
CCCOc1ccc(C(=O)Nc2ccc(N3CCN(C(=O)c4ccco4)CC3)cc2)cc1	0.17	0.68
Cc1cc(OCC(=O)N2CCC(O)(c3ccc(Cl)cc3)CC2)c2c(C)cc(=O)oc2c1	1.9	-0.67
Cc1ccc(N(CC(=O)NC2CCCC2)C(=O)Cn2nnc(-c3ccccc3F)n2)cc1	0.14	0.09
Cc1c(OC(C)C(=O)N[C@H](C(=O)O)c2ccccc2)ccc2c3c(c(=O)oc12)CCCC3 (stereo not given in full)	0.6	1.4
O=C(Nc1ccccc1C(=O)Nc1ccccc1)c1cccs1	0.72	0.24
CC(=O)Nc1ccc(NC(=O)CN(c2cccc([N+](=O)[O-])c2)S(C)(=O)=O)cc1	0.02	-0.5
COc1ccccc1CNc1ccc(N2CCOCC2)c(C(=O)O)c1	0.44	1.5
O=C1NC(=O)/C(=C\c2ccc(OCc3cnc(Cl)s3)cc2)S1	0.01	-1.1
O=C(NNc1c(Cl)cncc1Cl)c1sccc1Cl	0.11	-0.27
Nn1cc(-c2ccccc2)nc1SCC(=O)Nc1cccc(S(N)(=O)=O)c1	1.2	-2.9
O=C(c1ccccc1)c1ccc2nc(N3CCN(C(=O)c4ccco4)CC3)c3nncn3c2c1	0.49	-0.87
Cc1ccc(Nc2nc(-c3sc(N)nc3C)cs2)cc1	4.7	2.1
COc1ccc(Br)cc1C(=O)Nc1cccc2ncccc12	2.3	0.61
O=C1NC(c2ccccc2)CCC1(Cl)Cl (stereo not given)	1.9	-1.1
O=C(CCC(=O)N1CCOCC1)Nc1nnc(C2CCCCC2)s1	0.77	0.85
O=C(Nc1ccc(-c2cnco2)cc1)c1ccccc1	1.8	0.5
O=C(CN1CCOCC1)NCc1cc([N+](=O)[O-])ccc1O	0.04	-0.16
COC(=O)C1=C(C(=O)c2ccccc2)C(c2ccccc2)n2nnnc2N1 (stereo not given)	2.5	-2.3
Cc1cc(C)cc(NC2=NCC(=O)N2Cc2ccccc2)c1	0.16	-0.85
O=C(COC(=O)c1ccc2c(c1)S(=O)(=O)c1ccccc1C2=O)NC1CC1	1.8	-0.61
COc1ccc2c(c1)cc(C(=O)N[C@H](C(=O)N1CCC[C@H]1C(=O)O)C(C)C)n2C	1.4	-0.42
NC(=O)c1ccc2c(=O)n3c(-c4cccs4)csc3nc2c1	0.34	-0.05

In the list so far, these contain bromine:
SMILES	KCNQ2 enhance	KCNQ2 enhance baseline
CC1CN(C(=O)C2(C)CC2(Br)Br)CC(C)O1 (stereo not given)	0.79	0.51
COc1ccc(Br)cc1C(=O)Nc1cccc2ncccc12	2.3	0.61

(list continues)
SMILES	KCNQ2 enhance	KCNQ2 enhance baseline
O=C(c1cc(-c2cccc(Cl)c2)on1)N1CCCC1	0.07	-1.9
CCCCCC(=O)Cc1cc(O)cc2c1C(=O)Oc1cc(O)c(C(=O)O)c(CCCCC)c1O2	7.5*	-2.1*
N#Cc1c(-c2ccco2)c2c([nH]c1=S)CCCC2	0.74	0.07
CCc1ccc(OC(C)C(=O)Nc2ccccc2C(=O)N2CCOCC2)cc1 (stereo not given)	1.2	-0.07
NC(=O)c1ncc(C(F)(F)F)cc1Oc1cccnc1	1	-0.95
O=C(CN1CCOCC1)Nc1ccc([N+](=O)[O-])cc1	0.22	0.27
CCOCc1nnc(NC(=O)c2c(-c3ccccc3)noc2C)s1	0.88	1.2
COc1cccc(C(=O)N=c2sc3cc(S(C)(=O)=O)ccc3n2C)c1	0.82	-1.1
CCCCSc1nc(N)c(C#N)c(-c2cccs2)c1C#N	0.69	1.1
Cc1ccc(-n2ncc3c(=O)n(-c4ccc(C)c(C)c4)c(C)nc32)cc1	0.06	-1.3
COc1ccc(CN2CCC(C(=O)c3cccc(Cl)c3)CC2)cc1	0.01	1.1
CN(C)S(=O)(=O)c1cccc(NC(=O)CSc2ncnc3ccccc23)c1	1.6	0.41
CCCn1c(C(C)NC(=O)c2ccccc2)nc2ccccc21 (stereo not given)	0.17	-1.3
O=C(COc1cccc2cccnc12)NNC(=S)Nc1ccccc1	0.03	-0.37
Cc1nc(SCC(=O)O)c2oc3ccccc3c2n1	0.04	-0.17
CC(=O)Nc1ccc(-n2nnnc2SCC(=O)NCc2cccs2)cc1	1.1	-0.72
COc1ccc(OC)c(N(CC(=O)Nc2cccnc2)S(C)(=O)=O)c1	1	-0.33
O=C(N/N=C/c1ccsc1)c1cc(-c2ccncc2)nc2ccccc12	0.65	-1.8
COC(=O)CNC(=O)c1sc2ncn(CC(=O)Nc3ccc(C)c(Cl)c3)c(=O)c2c1C	0.01	0.64
CCCCC(=O)c1c(C)cc(C)[nH]c1=O	0.94	-0.41
O=C(c1ccco1)N1CCN(Cc2ccccc2Br)CC1	0.81	-0.85
O=S(=O)(c1ccc(NC(=S)Nc2ccc(OC(F)F)cc2)cc1)N1CCOCC1	1.3	0.25
Cc1ccc(N(NC(=O)C(C)(C)O)C(=O)c2ccccc2)cc1C	0.5	0.84
Cc1ccc(OCc2nnc(SCC(=O)N3CCOCC3)n2C)cc1	0.74	-0.48
O=C(Nc1ccnn1C1CCN(Cc2cccc(OCCO)c2)CC1)C1CC1	2.4	-3.2
Cc1oc(-c2ccccc2)cc1C(=O)Nc1cccc(/C=C\C(=O)O)c1	0.61	0.16
COC(=O)c1ccc(Nc2c([N+](=O)[O-])c(=O)oc3ccccc23)cc1	1.6	-1.2
Cc1ccc(C(=O)N/C(=C\c2cccs2)C(=O)NCCCN2CCOCC2)cc1	1.2	0.05
S=C(NC1CCCCC1)NC1CC2C=CC1C2 (stereo not given)	0.23	2
Cc1ccc2c(COC(=O)C3=COCCO3)cc(=O)oc2c1	0.58	0.63
Cc1nnc(SCc2cccc([N+](=O)[O-])c2)[nH]c1=O	1.1	-1.4
CC(Oc1ccc(Cl)cc1Cl)C(=O)NC(=S)N1CCc2ccccc21 (stereo not given)	9.3*	0*
CCc1ccc(NC(=O)C(C)OC(=O)CCC(=O)c2cccs2)cc1 (stereo not given)	0.02	0.62
CCOC(=O)c1sc(Nc2ccc(F)cc2)nc1C	1.3	0.48
COc1ccc(C(=O)Nc2nc(C)cs2)cc1S(=O)(=O)N1CCCC1	0.01	-0.54
Clc1ccc(C2NCCc3sccc32)cc1 (stereo not given)	2.2	0.28
CCN(CC)S(=O)(=O)c1ccc(OC)c(NC(=O)COc2ccc3c(C)cc(=O)oc3c2)c1	0.43	-0.08
O=C(Nc1cc(Cl)ccc1-n1cncn1)c1cc(S(=O)(=O)N2CCOCC2)ccc1F	1.6	-1.9
O=C(Nc1ccccc1)c1nc2ccccc2s1	0.56	0.06
Cc1ccc(-c2nn(CC(=O)NCc3ccco3)c(=O)c3ccccc23)cc1	0.12	0.97

Filtered by structure, the compounds so far containing a CF3 group.
SMILES	KCNQ2 enhance	KCNQ2 enhance baseline
Cc1cc(O)c(C2(C(F)(F)F)NCCNC2=O)cc1C (stereo not given)	0.8	1.4
O=C(CNc1cccc(S(=O)(=O)N2CCOCC2)c1)Nc1ccc(C(F)(F)F)cc1	4.7	-0.11
NC(=O)c1ncc(C(F)(F)F)cc1Oc1cccnc1	1	-0.95

Additional records follow:
SMILES	KCNQ2 enhance	KCNQ2 enhance baseline
NC(=O)c1ccc[n+](CC(=O)NCc2ccc(Cl)cc2)c1	0.18	0.03
COc1ccc(Cl)cc1S(=O)(=O)N1CCC(C(=O)NC2CC2)CC1	1.6	-0.52
NC(=O)Cc1ccc2sc(-c3ccccc3)nc2c1	0.68	-0.62
COc1cccc(CC(NC(C)=O)C(=O)NC2CCN(C(=O)C3CC3)CC2)c1OC (stereo not given)	0.03	0.47
O=C(Nc1ccc(Cl)cc1)c1ccc(-c2ccccn2)s1	0.15	0.65
Cc1ccc(/C(O)=C2\C(=O)C(=O)N(CC(C)O)C2c2ccccn2)cc1 (stereo not given)	0.65	0.54
Cn1cc(C(=O)N/N=C/c2cccc([N+](=O)[O-])c2)c2ccccc21	0.41	0.8
CCOC(=O)c1c(NC(=O)CSc2nnc(C)s2)sc2c1CCC(CC)C2 (stereo not given)	0.23	-0.62
COc1ccc(/C(C)=N\NS(C)(=O)=O)c(OC)c1	0.65	-1.7
Cc1cc(-c2cccs2)n[nH]1	0.8	-0.07
O=C(NC1CC(=O)N(c2ccc(F)cc2)C1)C(=O)c1c[nH]c2ccccc12 (stereo not given)	0.82	0.51
NC1=NN=C(N2N=C(c3ccccc3)CC2(O)C(F)(F)F)n2ncnc2C1 (stereo not given)	0.08	0.85
COC(=O)[C@@H](Cc1ccc(O)cc1)NC(=O)[C@H]1CCC(=O)N1C(=O)OCc1ccccc1	0.19	1.4
Cc1ccc[n+](CC(=O)N2CCCCC2)c1C	0.61	-0.04
O=C(OCC(=O)N1CCN(S(=O)(=O)c2ccc(Cl)cc2)CC1)c1ccc([N+](=O)[O-])o1	0.07	-0.32
N#CCCN(C(=O)CSc1ccc2c(c1)OCCO2)c1ccccc1	1	0.72
Cc1ccccc1NC(=O)C1CCN(C2=NS(=O)(=O)c3ccccc32)CC1	0.11	-1.8
CCN1CCN(C(=O)C2c3cc(OC)c(OC)cc3C(=O)N(C)C2c2ccc(SC)cc2)CC1 (stereo not given)	0.2	0.04
Cc1cc2[nH]c(=O)c(=O)[nH]c2cc1S(=O)(=O)N1CCC(C)CC1	0.01	0.38
Cc1ccc(-c2nc3ncccc3o2)cc1NC(=O)c1cccnc1	3.2	-1.6

Single entries from the list:
KCNQ2 enhance result of COc1cccc(CC(NC(C)=O)C(=O)NC2CCN(C(=O)C3CC3)CC2)c1OC (stereo not given) reads 0.03
KCNQ2 enhance baseline result of N#CCCN(C(=O)CSc1ccc2c(c1)OCCO2)c1ccccc1 reads 0.72
KCNQ2 enhance result of Cc1cc(-c2cccs2)n[nH]1 reads 0.8

Exported as a markdown table: entries from further up.
| SMILES | KCNQ2 enhance | KCNQ2 enhance baseline |
| --- | --- | --- |
| COC(=O)[C@@H](Cc1ccc(O)cc1)NC(=O)[C@H]1CCC(=O)N1C(=O)OCc1ccccc1 | 0.19 | 1.4 |
| Cc1ccc[n+](CC(=O)N2CCCCC2)c1C | 0.61 | -0.04 |

Assay outcomes: PubChem BioAssay, Johns Hopkins Ion Channel Center
